MgrA-DNA mod – alters Staphylococcus aureus MgrA binding to DNA | fluorescence polarization | inhibition, %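 (about 10 µg/mL by stock and volumes)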 | actives 0.13% (n = 84,000);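 active means above 50% in either of two replicates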;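 further: 0% = protein plus DNA without compound and 100% = DNA alone without protein; higher means less MgrA bound to DNA so lower polarization; one replicate is shown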
S aureus helic – blocks Staphylococcus aureus DNA helicase; purified S. aureus helicase, fluorescence unwinding assay; about half of the hits fall short of the stated cut; inhibition, %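 (tested at about 80 µM)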; actives 0.05% (n = 120,000); AID 485395;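 active means both duplicates at 50% or more, or one of them with a favoured structure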;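 further: 0% = mean of negative control wells and 100% = mean of positive control wells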
* hit, by the source's call; . = no result given; & = joins results of further samples. Some of the compounds tested, so the mix of outcomes need not match the whole.

item	compound	MgrA-DNA mod	S aureus helic
1	OCC(O)C(O)C(O)C1Nc2ccccc2S1 (stereo not drawn)	4.8	.
2	Cc1nc2ccc(NC(=O)C(C)(C)C(=O)Nc3ccc4nc(C)c(C)nc4c3)cc2nc1C	-5.5	17
3	Cc1ccc(NS(=O)(=O)c2cccc(C(=O)Nc3ccccc3)c2)cc1	2.0	7
4	C[C@H](N=C1NS(=O)(=O)c2ccccc21)C(=O)OCC(=O)N1CCC(c2ccccc2)=N1	.	-8
5	CC(=O)Nc1cccs1	0.9	-2
6	CC(C)=CCCC(C)N1CCCCC1 (stereo not drawn)	.	21
7	C(CN1CCOCC1)NC1CC2CCC1C2 (stereo not drawn)	-7.2	4
8	Nn1c(SCCCSc2nnc(C(F)(F)F)n2N)nnc1C(F)(F)F	.	7
9	CCCCC(=O)Nc1cc(-c2nc3cc(C(C)C)ccc3o2)ccc1OC	-0.8	5
10	Cc1c(S(=O)(=O)c2ccc(Cl)cc2)csc1C(=O)N1CC(C)OC(C)C1 (stereo not drawn)	3.0	.
11	c1ccc(SCc2cn3ccsc3n2)cc1	-4.8	-5
12	Cn1c(=O)c2[nH]c(-c3ccc(OCC(=O)NCc4ccccc4)cc3)nc2n(C)c1=O	0.7	-8
13	Cc1cccc(C(=O)N2CCN(S(=O)(=O)N3CCCCC3)CC2)c1	-2.0	6
14	CC(C)C(=O)Nc1ccc([N+](=O)[O-])c(C(F)(F)F)c1	3.5&0.5	.
15	CCCOc1ccc(C(=O)NCC2(c3ccccc3)CCOCC2)cc1	.	-2
16	O=S(=O)(Nc1ccc2c(c1)OC1(CCCCC1)O2)c1ccc2ccccc2c1	-0.7	13
17	CC(C)(C)c1ccc(OCCCC(=O)O)cc1	-1.1	-33
18	CCCCc1ccc(NC(=O)Nc2cc(C(C)(C)C)nn2C)cc1	.	12
19	Cc1onc(-c2ccccc2)c1C(=O)OCC(=O)N(C)Cc1cccs1	.	3
20	O=C(CC1(O)C(=O)Nc2ccc(Br)cc21)c1ccc(F)cc1 (stereo not drawn)	2.7	.
21	O=C(CC(NCc1ccccc1)C(=O)O)Nc1cccnc1 (stereo not drawn)	.	-13
22	COc1cc2c(cc1OC)C(C)N(Cc1cc(C)c(O)c(C)c1)CC2 (stereo not drawn)	-1.8	.
23	CCOC(=O)c1c(-c2ccccc2)oc2ccc(OCC(N)=O)cc12	.	-15
24	COc1ccc(Br)cc1CNC(=O)c1cc2c(=O)[nH]c3ccccc3c2n1C	-2.5	16
25	C=CCNC(=O)/C=C/c1cccs1	.	9
26	COc1ccc(NC(=O)Cn2c(-c3cscn3)nc3ccccc32)cc1	.	11
27	Cc1ccsc1CCN1CSC2=C(C#N)C(c3ccc(Cl)cc3)CC(=O)N2C1 (stereo not drawn)	2.2	10
28	CSc1ccc(C(=O)CCC(=O)O)cc1	.	5
29	N#Cc1nccnc1N1CCN(Cc2ccccc2)CC1	-0.2	.
30	O=S(=O)(Nc1ccccn1)c1ccc2c(c1)OCCO2	.	-21
31	COC(=O)/C=C(/c1ccccc1)n1cnc2ccccc21	0.1	.
32	Cc1nnc(Nc2ccc(C(=O)NCCO)cc2)c2ccccc12	-3.4	.
33	Cc1nnc(NC(C)C)s1	0.1	.
34	COc1ccccc1OCC(=O)NCC1CCCCC1	.	-6
35	CCOC(=O)c1c(NC(=O)CN2C(=O)S/C(=C/c3ccc(F)cc3)C2=O)sc2c1CCCC2	-1.8	7
36	O=C(CCC(=O)c1ccc2c(c1)OCCO2)OCc1ncc(-c2ccccc2)o1	.	13
37	COc1ccc(NC(=O)NCc2noc3ccc(C)cc23)c(OC)c1	-0.8	-1
38	Cc1ccc(NNC(=S)NC(C)C)c(C)c1	.	-11
39	COc1c(F)c(F)c(OC)c(F)c1F	.	7
40	Clc1ccc(SCc2csc(-c3ccno3)n2)cc1	.	-4
41	COc1cccc(/C=N/n2cnc3sc4c(c3c2=O)CCCC4)c1	0.1	-10
42	CC(C)N(C(C)C)S(=O)(=O)c1ccc(N2CCc3ccccc3C2)nc1	.	2
43	Cn1c(SCCN2CCCC2)nnc1C1CCN(C(=O)Cc2cccc(Cl)c2)CC1	-1.4	-6
44	Oc1c(C(Nc2cccc(Cl)c2)c2cccnc2)ccc2cccnc12 (stereo not drawn)	4.6	5
45	COc1ccccc1S(=O)(=O)Nc1ccc2nc(SC)sc2c1	.	10
46	CCC1Sc2ccc(S(=O)(=O)CCC(=O)N3CCOCC3)cc2NC1=O (stereo not drawn)	.	-19
47	Cc1nc(N(C)CC(=O)N2CCOCC2)c2c(-c3ccccc3)csc2n1	.	17
48	O=C(O)CC(Cc1ccc(Cl)cc1)C(=O)Nc1ccccc1 (stereo not drawn)	0.2	-4
49	COC(=O)c1sccc1NC(=O)c1cc(C)on1	1.1	3
50	COc1ccc(OCCOC(=O)c2cccs2)cc1	.	-10
51	COc1ccc(S(=O)(=O)c2c(SC)nn(C)c2N)cc1	.	3
52	CC(C)(O)C1Cc2cc3ccc(=O)oc3cc2O1 (stereo not drawn)	-0.9	2
53	COC(=O)C1=C(NC(=O)c2cccc(C)c2)CCS1	.	-1
54	COc1ccc(OC)c(C(=O)COC(=O)c2ccco2)c1	.	11
55	NC(=O)c1ccccc1SCc1ccccc1	0.8	.
56	NC(=O)C1CCN(C(=O)COc2ccc(Cl)cc2Cl)CC1	0.5	0
57	CCOC(=O)C1=C(CNc2cccnc2)NC(=O)NC1c1ccccc1 (stereo not drawn)	1.9	2
58	O=C1CC(NC2CCN(C(=O)c3cccc(F)c3)CC2)C(=O)N1 (stereo not drawn)	2.8	5
59	COc1ccc(CNc2nc(-c3cccnc3)nn2S(C)(=O)=O)cc1	1.9	4
60	COC(=O)c1cc(C(=O)Cc2ccccc2)c[nH]1	-3.5	.

By substructure, those above with an aryl thioether with sulfur outside any ring
item	compound	MgrA-DNA mod	S aureus helic
8	Nn1c(SCCCSc2nnc(C(F)(F)F)n2N)nnc1C(F)(F)F	.	7
11	c1ccc(SCc2cn3ccsc3n2)cc1	-4.8	-5
28	CSc1ccc(C(=O)CCC(=O)O)cc1	.	5
40	Clc1ccc(SCc2csc(-c3ccno3)n2)cc1	.	-4
43	Cn1c(SCCN2CCCC2)nnc1C1CCN(C(=O)Cc2cccc(Cl)c2)CC1	-1.4	-6
45	COc1ccccc1S(=O)(=O)Nc1ccc2nc(SC)sc2c1	.	10
51	COc1ccc(S(=O)(=O)c2c(SC)nn(C)c2N)cc1	.	3
55	NC(=O)c1ccccc1SCc1ccccc1	0.8	.

Other records:
item	compound	MgrA-DNA mod	S aureus helic
61	O=C1C2ON(c3ccccc3)C(c3ccco3)C2C(=O)N1c1ccccc1 (stereo not drawn)	0.8	7
62	O=C(NCC(=O)N1CCN(C2CCS(=O)(=O)C2)CC1)c1ccc2c(c1)OCO2 (stereo not drawn)	.	3
63	CCOc1ccc(OCCOc2ccc(CNCC(=O)N(C)C)cc2OCC)cc1	.	10
64	C/C(C/C(C)=C1/SC(=S)NC1=O)=C1\SC(=S)NC1=O	45	37
65	C[C@@H](O)[C@H]1C(=O)N2C(C(=O)O)=C(S[C@@H]3CN[C@H](C(=O)N(C)C)C3)[C@H](C)[C@H]12	-0.7	.
66	Oc1cccc2c1Cc1ccccc1-2	6.2	5
67	O=C(O)C1C2C=CC(O2)C1C(=O)Nc1ccc(S(=O)(=O)N2CCc3ccccc32)cc1 (stereo not drawn)	1.6	10
68	COC(=O)Cn1c2c(c3cc(C)ccc31)CCCC2	3.2	5
69	O=C(CN1CCN(C(=O)c2ccc(-c3ccccc3)cc2)CC1)N1CCCC1	.	6
70	C=CCN(c1ccc(C(=O)N2CCC(C(=O)OCC)CC2)cc1)S(C)(=O)=O	3.4	5
71	O=C(Cn1cnc2c(cnn2CCO)c1=O)c1ccc(Cl)cc1	.	6
72	Cc1cc(C2CCCCC2)ccc1O	.	5
73	NS(=O)(=O)c1ccc(-n2cccc2)cc1	1.2	.
74	O=C(N/N=C/c1ccccn1)NC12CC3CC(CC(C3)C1)C2	.	7
75	CCS(=O)(=O)c1ccc(O)c(NC(=O)Nc2ccccc2)c1	.	12
76	Fc1ccc(-c2nnc(CSCc3cccc4ccccc34)o2)cc1	-1.1	.
77	N#Cc1nc(N2CCCC2)nc(N(c2ccccc2)c2ccccc2)n1	4.7	2
78	N#Cc1c(NC(=O)c2cccnc2)sc2c1CCCC2	-0.6&0.7	-9&9
79	COc1ccc(-c2csc(-n3nc(C)cc3C)n2)cc1	0.1	.
80	CCCCC/C=C\C/C=C\C/C=C\C/C=C\CCCCCC(=O)O	0.0	.
81	Cc1cc(C(=O)O)on1	-3.0	4
82	COc1ccc(C2(O)N=C(C(F)(F)F)NC(SC)=C2C#N)cc1 (stereo not drawn)	0.8	.
83	CN1CCCC(OC(=O)c2ccco2)C1 (stereo not drawn)	-1.9	4
84	CN(C(=O)CSc1ccc(Cl)cc1)c1ccccc1C(=O)NC1CCCCC1	1.1	.
85	O=C(O)CCCC(=O)N1CCN(c2ncccn2)CC1	-2.8	.
86	Cc1ccc(NS(=O)(=O)c2c(C(C)C)cc(C(C)C)cc2C(C)C)cc1	3.8	-4
87	NC(=O)C1CCN(CN2C(=O)c3ccccc3C2=O)CC1	3.5	.
88	CCN(CC)CCNc1nc(C)cc(C)n1	-1.9	12
89	N#Cc1c(SCC(=O)NC2CC2)nsc1SCC(=O)NC1CC1	.	6
90	CC(C)(CO)NC(=O)c1cccc(S(=O)(=O)N2CCOCC2)c1	.	10
91	COc1cc2c(cc1OC)C(C)N(C(=O)c1ccc(F)cc1)CC2 (stereo not drawn)	.	9
92	O=C1CCCC(=O)C1C(c1ccccc1)C1C(=O)CCCC1=O	.	-4
93	Nc1[nH]ncc1S(=O)(=O)c1ccccc1	-1.1	.
94	Cc1onc(-c2c(Cl)cccc2Cl)c1NC(=O)N1CCOCC1	.	-6
95	NC(CSCc1cccc(Br)c1)C(=O)O (stereo not drawn)	.	9
96	O=C(Nc1nccs1)C1CC1	.	6
97	CSc1sc(-c2ccnc(=S)[nH]2)c2c1C(=O)CC(C)(C)C2	8.8	.
98	O=C(Nc1cccc(F)c1)C1CCCN(c2cnccn2)C1 (stereo not drawn)	.	-7
99	O=S(=O)(Nc1ccc2c(c1)oc1ccccc12)N1CCCC1	-0.9	-4
100	Fc1cc(F)cc(Cc2nc(-c3cccs3)no2)c1	-1.0	.
101	CCCCn1c(CNC(=O)c2ccccc2F)nnc1SCC(=O)OC	.	4
102	Cn1c(/C(C#N)=c2/s/c(=C\c3ccsc3)c(=O)n2-c2ccccc2)nc2ccccc21	.	-25
103	O=C(OCCN1C(=O)c2ccccc2C1=O)c1cc(-c2ccco2)nc2ccccc12	.	12
104	O=C1CCCC/C1=C\N1CCOCC1	.	16
105	COc1ccc(OC2C(=O)N(Cc3ccc(F)cc3)C2c2ccc(OC)c(OC)c2)cc1 (stereo not drawn)	-0.7	13
106	O=C(CCC(=O)c1ccc(Cl)cc1)Nc1c(F)cccc1F	6.8	-13
107	Cc1cc(C(=O)CCC(=O)O)cc(C)c1O	-5.9	16
108	COC(=O)Cn1ncn2cccc2c1=O	.	2
109	COc1cc(C(=O)N2CCC(n3nnc4cc(F)ccc43)CC2)cc(OC)c1OC	-2.1	5
110	O=C(Cc1nc(=O)c2ccccc2s1)Nc1ccccc1	0.3	.
111	S=c1n(CN2CCOCC2)nc2n1CCCCC2	2.0	10
112	O=C(Nc1ccccc1C(=O)OCc1csc(Nc2ccccc2)n1)c1ccco1	.	2
113	Cc1cn(S(=O)(=O)c2ccc(Br)c3ccccc23)cn1	.	8
114	CCc1ccc(CNC(=O)C2CCCN2c2nnc(N3CCCC3=O)s2)cc1 (stereo not drawn)	.	-21
115	CCOC(=O)c1[nH]cnc1C(=O)NC1CCCCC1	-1.2	10
116	COC(=O)c1cc2c(ccn2-c2ccc(F)cc2)n1CC(=O)Nc1ccc(C)cc1	-2.8	2
117	CCCc1cc(=O)[nH]c2nnc(SCC(=O)Nc3ccccc3C(F)(F)F)n12	.	9
118	CC(=O)N1CCC(=NNc2ccnc3cc(Cl)ccc23)CC1	.	0
119	O=C(Cc1csc(NC(=O)Cc2ccccc2)n1)NO	.	12
120	O=C(CCC(=O)N1CCSc2ccccc21)Nc1cccc(F)c1	.	13

Remaining list, next part
item	compound	MgrA-DNA mod	S aureus helic
121	Cn1c(=O)c2c(nc(NNC(=O)C(F)(F)F)n2C)n(C)c1=O	0.1	-2
122	Cc1cccc2c1SC1CCCCC1OC(=O)N2 (stereo not drawn)	.	-24
123	c1cc(Oc2ncnc3sc4c(c23)CCCC4)cc(-n2cnnn2)c1	.	-11
124	CC(C)(C)S(=O)(=O)/C(C#N)=C/Nc1ncccn1	-1.1	.
125	C(=Nc1ccc(N2CCOCC2)cc1)c1ccc2c(c1)OCO2	.	-15
126	CCOc1ccc(N(C(=O)NC2CCCCC2)C2=NCCCCC2)cc1	.	-1
127	CC1C(O)C(N(C)C)CC2COCC21 (stereo not drawn)	-1.1	3
128	N#CC(C#N)=CNc1cccc(N)n1	-1.4	.
129	O=C(O)CCC(=O)Nc1nc(-c2ccc(Br)cc2)cs1	.	1
130	CC1=Nc2cc(C(=O)NCC3CCCO3)ccc2Sc2ccccc21 (stereo not drawn)	.	12

High-throughput results as filed in PubChem BioAssay.
